nsP2pro inh: inhibitors of chikungunya virus nsP2 protease | Potency, µM (highest dose often 24.9 µM), without a hit: top-dose activity change, negative = inhibition, hits mostly inhibitors | FRET peptide cleavage, nsP2pro, fluorescence 1 h | actives 1.1% (n = 31,000) | AID 1964107 | Q8JUX6; active means well fitted inhibition curve with a large enough effect; inconclusive means small, poorly fitted or top-dose-only effect; inactive means no such curve, though single readings can be large or run the other way; also: nearly all actives have a fitted effect of over 60% in size; a reference inhibitor and vehicle were the controls
Target sequence (Q8JUX6 whole entry, looked up): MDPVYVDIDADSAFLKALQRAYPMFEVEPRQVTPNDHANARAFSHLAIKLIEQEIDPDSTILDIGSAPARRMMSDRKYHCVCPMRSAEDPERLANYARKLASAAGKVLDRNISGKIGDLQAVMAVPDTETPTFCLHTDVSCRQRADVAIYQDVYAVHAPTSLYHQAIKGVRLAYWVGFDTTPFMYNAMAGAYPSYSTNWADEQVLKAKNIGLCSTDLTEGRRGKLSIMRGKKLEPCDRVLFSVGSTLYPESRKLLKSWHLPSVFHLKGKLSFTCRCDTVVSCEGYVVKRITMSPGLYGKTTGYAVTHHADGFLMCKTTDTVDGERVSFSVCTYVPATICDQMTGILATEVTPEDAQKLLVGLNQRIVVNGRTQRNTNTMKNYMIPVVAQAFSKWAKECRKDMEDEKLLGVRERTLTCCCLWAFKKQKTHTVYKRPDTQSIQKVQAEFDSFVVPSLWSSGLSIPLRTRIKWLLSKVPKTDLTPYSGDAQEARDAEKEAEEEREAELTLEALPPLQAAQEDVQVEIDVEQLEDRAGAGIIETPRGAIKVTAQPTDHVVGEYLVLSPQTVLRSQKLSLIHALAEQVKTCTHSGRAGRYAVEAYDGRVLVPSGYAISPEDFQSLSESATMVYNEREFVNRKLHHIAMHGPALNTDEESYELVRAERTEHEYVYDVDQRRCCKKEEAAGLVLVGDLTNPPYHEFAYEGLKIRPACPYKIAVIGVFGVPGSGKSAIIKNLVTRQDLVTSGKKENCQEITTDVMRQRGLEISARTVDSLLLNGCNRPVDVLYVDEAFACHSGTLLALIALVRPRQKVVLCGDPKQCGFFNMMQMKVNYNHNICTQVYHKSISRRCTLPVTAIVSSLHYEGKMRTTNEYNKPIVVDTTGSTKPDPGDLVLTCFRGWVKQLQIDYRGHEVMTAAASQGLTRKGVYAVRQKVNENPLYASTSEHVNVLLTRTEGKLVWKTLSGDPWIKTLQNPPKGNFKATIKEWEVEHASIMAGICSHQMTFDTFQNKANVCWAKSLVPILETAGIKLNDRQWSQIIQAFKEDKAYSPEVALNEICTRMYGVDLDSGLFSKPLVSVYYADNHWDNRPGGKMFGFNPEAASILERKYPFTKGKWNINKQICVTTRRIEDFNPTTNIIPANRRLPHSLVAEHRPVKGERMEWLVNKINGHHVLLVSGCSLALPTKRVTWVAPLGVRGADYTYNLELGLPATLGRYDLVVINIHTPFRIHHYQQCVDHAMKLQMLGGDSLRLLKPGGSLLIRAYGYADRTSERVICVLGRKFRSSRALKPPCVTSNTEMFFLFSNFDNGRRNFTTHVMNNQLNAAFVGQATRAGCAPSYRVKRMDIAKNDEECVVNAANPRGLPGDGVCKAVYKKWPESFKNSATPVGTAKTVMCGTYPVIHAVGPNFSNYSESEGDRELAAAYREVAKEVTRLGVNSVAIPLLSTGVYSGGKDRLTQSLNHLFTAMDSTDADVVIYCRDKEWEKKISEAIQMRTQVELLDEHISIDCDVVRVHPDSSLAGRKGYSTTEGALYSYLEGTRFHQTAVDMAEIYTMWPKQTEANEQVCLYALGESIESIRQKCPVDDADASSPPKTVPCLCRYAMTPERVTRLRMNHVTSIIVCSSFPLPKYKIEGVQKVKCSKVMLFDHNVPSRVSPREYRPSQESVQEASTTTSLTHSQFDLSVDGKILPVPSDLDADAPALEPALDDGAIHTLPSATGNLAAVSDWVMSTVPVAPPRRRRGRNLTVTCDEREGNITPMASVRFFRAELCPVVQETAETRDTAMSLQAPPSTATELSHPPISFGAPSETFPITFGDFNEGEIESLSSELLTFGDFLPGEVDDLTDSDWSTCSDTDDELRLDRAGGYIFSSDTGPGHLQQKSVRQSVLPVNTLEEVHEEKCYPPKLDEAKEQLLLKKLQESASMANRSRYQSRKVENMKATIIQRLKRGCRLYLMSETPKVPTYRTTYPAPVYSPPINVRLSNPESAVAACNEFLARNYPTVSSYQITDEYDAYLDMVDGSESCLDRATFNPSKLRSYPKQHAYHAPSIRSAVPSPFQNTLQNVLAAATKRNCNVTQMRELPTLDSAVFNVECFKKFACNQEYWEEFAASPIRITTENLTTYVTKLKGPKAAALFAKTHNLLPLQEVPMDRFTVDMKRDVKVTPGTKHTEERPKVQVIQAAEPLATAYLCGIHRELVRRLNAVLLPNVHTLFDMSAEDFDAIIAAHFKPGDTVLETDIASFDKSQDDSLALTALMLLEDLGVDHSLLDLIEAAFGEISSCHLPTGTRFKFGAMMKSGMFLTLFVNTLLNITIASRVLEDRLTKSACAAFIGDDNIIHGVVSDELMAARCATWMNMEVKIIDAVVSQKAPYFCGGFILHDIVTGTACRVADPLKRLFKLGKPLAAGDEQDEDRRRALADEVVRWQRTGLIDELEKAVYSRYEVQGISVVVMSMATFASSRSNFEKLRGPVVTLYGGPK
* marks the source's active call; other numbers are inactive results; i = inactive; u = inconclusive; & = joins results of further samples; [ ] = remark or other dose. % is scaled to controls: 0 for no effect and ±100 for the full control effect; potency is read from the fitted curve at half-maximal effect. This is a subset; count on the stated rates, not on these rows.

SMILES | nsP2pro inh
CCOc1ccc(CCNC(=O)c2nnc(Cc3ccc(Cl)cc3Cl)o2)cc1OCC | -10.2%
O=c1n(-c2ccc(C(F)(F)F)cc2)nc2n1CCN([S+](=O)([O-])c1ccccc1)C2 | 3.4%
CCc1ccc2nc(N(Cc3cccnc3)C(=O)Cc3ccccc3)sc2c1 | 2.2%
CC(=O)OC[C@]12C[C@H](O)C(C)=C[C@H]1O[C@@H]1[C@H](O)[C@@H](OC(C)=O)[C@@]2(C)[C@]12CO2 | -7.2%
CCOc1ccc(CC(=O)N2CCC[C@H]2c2nc(-c3ccc(OC)cc3)no2)cc1 | 4.6%
Cc1ccc(NC(=O)C(C)n2nnc3sc4c(c3c2=O)CCCC4)cc1Cl (stereo not drawn) | 12.7%
Cc1nc(C)c(C(=O)N2Cc3ccccc3C(O)C2)s1 (stereo not drawn) | -8.8%
COc1ccc(-c2nc(-c3cc(C(F)(F)F)cc(C(F)(F)F)c3)n(Cc3ccc(C(N)=O)cc3)c2-c2ccc(OC)cc2)cc1 | 0.8%
CCOC(=O)c1cccc(NC(=O)CCSCCc2ccccn2)c1 | -13.7%
Cc1c(C2=CCN(S(=O)(=O)c3ccc(Cl)cc3)CC2)c2ccccc2n1CC(=O)N1CCCC1 | -16.8%
COc1ccccc1CNC(=O)CN(C)c1nn2c(=O)cc(C)nc2s1 | 4.5%
O=C(COc1ccccc1)N1C[C@@H]2C[C@H](C1)c1ccc(-c3cccc(C(F)(F)F)c3)c(=O)n1C2 | -9.1%
O=C(CSc1nnc(-c2cccc(S(=O)(=O)N3CCCC3)c2)n1-c1ccccc1)Nc1ccc(Cl)cc1 | 3.5%
O=[N+]([O-])c1ccccc1NCc1ccc(O)c2ncccc12 | i
COc1cc(NC(=O)c2cnn3c(C)cc(C)nc23)cc(OC)c1OC | -3.2%
CCOC(=O)CSc1nc2sc3c(c2c(=O)n1CC)CCCC3 | -19.0%
COCCN1CC(CO)C2(CCN(C3CCN(C(C)=O)CC3)CC2)C1 (stereo not drawn) | 4.4%
O=C1c2ccccc2NC(c2ccc(Br)o2)N1O (stereo not drawn) | 1.0%
COC(=O)[C@H]1[C@H]2C[C@@H]3c4[nH]c5cc(OC)ccc5c4CCN3C[C@H]2C[C@@H](OC(=O)c2cc(OC)c(OC)c(OC)c2)[C@@H]1OC | -26.5%[10 µM]
CCCc1nn(C)c2c(=O)[nH]c(-c3cc(S(=O)(=O)N4CCN(C)CC4)ccc3OCC)nc12 | -19.1%&-13.0%&6.8%
COc1ccc(-n2nc(C(=O)Nc3cccc(C)n3)c3c4ccccc4n(C)c3c2=O)cc1 | -14.3%
CS(=O)(=O)/C=C/c1nc(Nc2cc(F)cc(F)c2)c2ncn(CC(F)F)c2n1 | -1.5%
COc1cccc(C(=O)Nc2ccccc2OCc2cc(=O)n3ccccc3n2)c1 | -10.3%
COc1cc(N2CCC(O)CC2)ccc1Nc1cc(Nc2ccccc2S(=O)(=O)C(C)C)c2cc[nH]c2n1 | 59.3%[activator]
O=C(c1cccc(OC2CN(C3CCSCC3)C2)c1)N1CCCC1 | i

Next section; it opens with the 2 that closed the last part.
SMILES | nsP2pro inh
COc1cc(N2CCC(O)CC2)ccc1Nc1cc(Nc2ccccc2S(=O)(=O)C(C)C)c2cc[nH]c2n1 | 59.3%[activator]
O=C(c1cccc(OC2CN(C3CCSCC3)C2)c1)N1CCCC1 | i
NC(=O)c1ccc(-c2cccc3c2CCNC3)s1 | i
C[C@@H]1O[C@@H](O[C@H]2[C@H](OC(C#N)c3ccc(O)cc3)O[C@H](CO)[C@@H](O)[C@@H]2O)[C@H](O)[C@H](O)[C@H]1O (stereo partly drawn) | -9.3%[10 µM]
c1ccc2[nH]c(-c3cscn3)nc2c1 | -7.0%&5.0%
CN(C)c1cnc2c(O)ccc([S+](=O)([O-])Nc3ccccc3F)c2c1 | i
COc1ccc(OC)c(CNC(=O)C2CCN(S(=O)(=O)c3ccc4[nH]c(=O)oc4c3)CC2)c1 | -16.2%
C[C@]12CC[C@H](OC3OC(CO)C(O)C(O)C3OC3OC(CO)C(O)C(O)C3O)C[C@@H]1CC[C@@H]1C2CC[C@]2(C)[C@@H](C3=CC(=O)OC3)CC[C@]12O (stereo partly drawn) | 9.6%[10 µM]
CC(C)(Oc1ccc(C2CC2(Cl)Cl)cc1)C(=O)O (stereo not drawn) | -9.2%&3.0%
CCN(CC)CCCNc1sc(S(=O)(=O)c2ccccc2)nc1S(=O)(=O)c1ccc(Cl)cc1 | 30.5%[activator]
O=C(Nc1ccc2oc(-c3cccnc3)nc2c1)c1ccc(-c2cccc(Cl)c2)o1 | u
CCn1nc(C)c2c(-c3ccccc3)cc(=O)n(C(C)C(=O)Nc3cccc(F)c3)c21 (stereo not drawn) | -5.4%
Cc1ccc(C)c(NC(=O)CSc2c(C)cnc3c2c(=O)n(C)c(=O)n3C)c1 | -10.9%
CC1(C)CCCC2(C)c3c4c(c(=O)oc(=O)c3=CCC12)=CCC1C(C)(C)CCCC41C (stereo not drawn) | 4.5%[10 µM]
COc1ccc(Br)cc1CNC(=O)CN1C(=O)CCCc2ccccc21 | -10.1%
CCC(CC)c1nn2c(=O)cc(COc3ccc(NC(=O)c4ccccc4C)cc3)nc2s1 | -19.5%
Cc1cc2c(s1)c1cnn(Cc3c(F)c(F)cc(F)c3F)c(=O)c1n2C | -4.3%
CNC(=O)N1CCC(C2CCN(C(=O)CCn3cccn3)C2)CC1 (stereo not drawn) | -10.6%
C[C@]12CC[C@H](O[C@@H]3O[C@H](CO)[C@@H](O)[C@H](O)[C@H]3O)CC1CC[C@@H]1C2CC[C@]2(C)[C@@H](C3=CC(=O)OC3)CC[C@]12O (stereo partly drawn) | u
Cc1cc(OC2CN(Cc3ccnn3C)C2)ccc1F | i
COc1cccc(CNC(=O)c2c(C)noc2-c2ccccc2OC)c1 | -4.7%
COc1cccc(CNc2ccc(S(=O)(=O)Nc3nc4ccccc4s3)cc2)c1O | u
COCC1CN(C)CC12CCN(Cc1cccnc1)CC2 (stereo not drawn) | 4.2%
CCOC(=O)c1c(SCC(=O)Nc2nc3ccccc3s2)nc(=O)[nH]c1C | -14.9%
O=S(=O)(c1ccc2c(c1)OCCO2)N1CCN(S(=O)(=O)c2ccccc2Cl)CC1 | -10.8%
N#Cc1cn([C@@H]2O[C@H](CO)[C@H](O)[C@@H]2O)c2ncnc(N)c12 | -4.4%
COc1ccc(CCNC(=O)c2ccc3c(c2)nc2n3CCC(C)C2)cc1OC (stereo not drawn) | -7.9%

Pulled by structure from above:
SMILES | nsP2pro inh
C[C@]12CC[C@H](OC3OC(CO)C(O)C(O)C3OC3OC(CO)C(O)C(O)C3O)C[C@@H]1CC[C@@H]1C2CC[C@]2(C)[C@@H](C3=CC(=O)OC3)CC[C@]12O (stereo partly drawn) | 9.6%[10 µM]
C[C@]12CC[C@H](O[C@@H]3O[C@H](CO)[C@@H](O)[C@H](O)[C@H]3O)CC1CC[C@@H]1C2CC[C@]2(C)[C@@H](C3=CC(=O)OC3)CC[C@]12O (stereo partly drawn) | u
COCC1CN(C)CC12CCN(Cc1cccnc1)CC2 (stereo not drawn) | 4.2%
CN(C)c1cnc2c(O)ccc([S+](=O)([O-])Nc3ccccc3F)c2c1 | i
COc1ccc(OC)c(CNC(=O)C2CCN(S(=O)(=O)c3ccc4[nH]c(=O)oc4c3)CC2)c1 | -16.2%
Cc1cc(OC2CN(Cc3ccnn3C)C2)ccc1F | i
Cc1cc2c(s1)c1cnn(Cc3c(F)c(F)cc(F)c3F)c(=O)c1n2C | -4.3%

Going on with the list:
SMILES | nsP2pro inh
O=C(O)c1ccc(O)c2ncc(N3CCCN(CCCc4ccncc4)CC3)cc12 | i
Cc1noc(C)c1S(=O)(=O)NCCc1ncc(C)n1C1CC1 | -2.3%
O=C(CCn1cnnn1)N1CCCC(CCc2cccc(C(F)(F)F)c2)C1 (stereo not drawn) | i
O=C(CN1C(=O)N/C(=C\c2cccn2-c2cccc(C(=O)O)c2)C1=O)Nc1cccc(F)c1 | i
Cc1ccc([C@H]2C[C@@H](O)[C@@H](O)[C@@H]2NS(C)(=O)=O)cc1 | -4.8%[39.2 µM]
Cc1cc(C)nc(NC(=S)N2CCN(c3ccc4nsnc4c3)CC2)c1 | 3.16µM*
COc1cc(/C=C/C(=O)OC2CC(OC(C)=O)C(OC(C)=O)C3C2CCC2C(=O)OC(c4ccoc4)CC23C)ccc1O[C@@H]1O[C@H](CO)[C@@H](O)[C@H](O)[C@H]1O (stereo partly drawn) | -22.5%[10 µM]
CN(C)[C@@H]1CN(C(=O)C2CCCCC2)CC[C@@H]1CO | -2.8%
Cc1nc2ccccc2c(-c2ccc3c(c2)CCCO3)c1C(OC(C)(C)C)C(=O)O (stereo not drawn) | -11.8%
CC1Oc2ccc(NC(=O)c3cccs3)cc2CN(CCOc2ccccc2)C1=O (stereo not drawn) | -2.7%
O=C1Nc2ccc3ncsc3c2/C1=C/c1cnc[nH]1 | 72.1%[activator]
CC[C@H]1C[C@@H]2CC[C@@H](O2)[C@@H](C)C(=O)O[C@H](CC)C[C@H]2CC[C@H](O2)[C@H](C)C(=O)O[C@@H](C)C[C@@H]2CC[C@@H](O2)[C@@H](C)C(=O)O[C@H](CC)C[C@H]2CC[C@H](O2)[C@H](C)C(=O)O1 | 6.9%[10 µM]
CCCNC(=O)N1CCC(N2CC(OCC3CC3)C23CCCCC3)CC1 (stereo not drawn) | -1.7%
Cc1cc(C)c(Cn2c(=O)n(CCC(=O)NCc3ccc4c(c3)OCO4)c(=O)c3ccccc32)c(C)c1 | -10.3%
CCN(CC)CCCC(C)n1c(-c2ccccc2)nc2c(NC3CCCCC3)nc(C)nc21 (stereo not drawn) | 2.1%
Cc1c(NC(=O)c2cc(C(N)=O)nc3cc(F)ccc23)c(C(F)(F)F)nn1Cc1ccc(C#N)cc1 | 8.2%[10 µM]
Cc1ccc(F)cc1C(=O)Nc1ccc(C(=O)N2Cc3cccn3Cc3ccccc32)c(Cl)c1 | -8.8%
Cc1oc(=O)oc1COC(=O)[C@@H]1N2C(=O)[C@@H](NC(=O)[C@H](N)c3ccccc3)[C@H]2SC1(C)C | 0.0%
C[C@@H]1CN(c2c(F)c(N)c3c(=O)c(C(=O)O)cn(C4CC4)c3c2F)C[C@H](C)N1 | -14.0%[10 µM]
CCN1CCC2(CCC1=O)CN(Cc1nnc(-c3cccnc3)o1)CCN2C (stereo not drawn) | -2.7%
O=C(c1ccccc1F)N1CCC2(CC(c3cccc(C(F)(F)F)c3)=NO2)C1 (stereo not drawn) | i
COc1ccc(CCNCc2ccc3c(c2)n(C)c(=O)n3C)cc1OC | -24.5%
CCS(=O)(=O)N1CCC2(CC1)OC(=O)C(C)=C2C(=O)NCc1ccc(OC)c(OC)c1 | -19.1%
c1nc(NCCc2cnc[nH]2)c2cc(-c3ccoc3)ccc2n1 | 4.2%
CC(C)=CCc1cc(O[C@@H]2O[C@H](CO[C@@H]3OC[C@](O)(CO)[C@H]3O)[C@@H](O)[C@H](O)[C@H]2O)ccc1O | 21.0%[10 µM]
SMILES | nsP2pro inh
CC(=O)Nc1ccc(-n2c(CCC(=O)O)ccc2-c2ccc(C)cc2)cc1 | u
O=S(=O)(NC[C@@H]1CCNC[C@H]1O)c1ccc(OC(F)(F)F)cc1 | 4.0%
Cc1cc(C)n2c(Nc3ccc4c(c3)OCCO4)c(-c3ccccc3)nc2n1 | -6.5%
COc1ccc2c(c1OC)CN1CCc3cc4c(cc3C1C2)OCO4 (stereo not drawn) | -20.8%
O=S(=O)(O)Oc1ccc(C(c2ccc(OS(=O)(=O)O)cc2)c2ccccn2)cc1 | -1.1%
O=C(O)c1ccc2c(c1)C(=O)N(CCc1ccc(O)cc1)C2=O | 1.6%
NCCC(=O)N1CCC2(CC1)CN(C(=O)c1ccc(Cl)cc1)CCO2 | 7.94µM*
CNC(=O)NCCc1ncc(C)n1C1CCCCCCC1 | i
O=C(NCCc1ccccc1)c1ccc(Cn2c(SCc3cccc(F)c3)nc3cccnc32)cc1 | 9.9%
Cc1cc2c(s1)c1cnn(Cc3cc(F)cc(F)c3)c(=O)c1n2C | i
O=C1NC2(CCCN(C(=O)c3ccc(F)cc3)C2)Oc2ccccc21 (stereo not drawn) | -0.5%[39.2 µM]
Cc1ccc([N+](=O)[O-])cc1S(=O)(=O)N(C)/N=C/c1cnc2ccc(Br)cn12 | 80.6%[activator]
Cc1ccc(S(=O)(=O)c2ccc([N+](=O)[O-])o2)cc1 | 0.556µM*
Cc1ccc(C(=O)/C=C/c2ccccc2)s1 | 14.6%
O=C(Nc1nc(-c2ccccc2)cs1)c1ccncc1NS(=O)(=O)c1cccc2cccnc12 | i
O=C(O)CO[C@@H]1COCC[C@H]1NC(=O)c1ccccc1-c1ncn[nH]1 | -5.3%
CC(=O)O[C@@H]1[C@H](O)[C@@H](O[C@@H]2O[C@@H](C)[C@H](O[C@@H]3OC[C@@H](O)[C@H](O[C@@H]4OC[C@@H](O)[C@H](O)[C@H]4O)[C@H]3O)[C@@H](O[C@@H]3O[C@H](CO)[C@@H](O)[C@H](O)[C@H]3O)[C@H]2O)[C@H](OC(=O)[C@]23CCC(C)(C)C[C@H]2C2=CCC4[C@@]5(C)CC[C@H](O[C@@H]6O[C@H](C(=O)O)[C@@H](O)[C@H](O[C@@H]7OC[C@@H](O)[C@H](O)[C@H]7O)[C@H]6O[C@@H]6O[C@H](CO)[C@H](O)[C@H](O)[C@H]6O)[C@@](C)(C=O)C5CC[C@@]4(C)[C@]2(C)CC3)O[C@@H]1C (stereo partly drawn) | u
CCOc1cc2[nH]c(=O)n(CCC(=O)N3CCN(c4ccccc4)CC3)c(=O)c2cc1OCC | -14.5%
Cc1cccc(C(=O)OCc2cc(=O)n3ccsc3n2)c1 | -1.6%
Cc1ccc(N2CCN(C(=O)c3cc(C(F)(F)F)nn3C)CC2=O)cc1 | -9.4%
CCN(CC)C(=O)c1sc2c(c1C)c(=O)n(-c1ccc(Cl)c(Cl)c1)c(=O)n2Cc1cc(=O)n2c(C)cccc2n1 | -9.3%
O=C(NCc1ccccc1Cl)c1ccc2nnc(-c3ccoc3)n2c1 | 11.2µM*
Cc1ccccc1OCC(=O)Nc1nnc(S(=O)(=O)N2CCCC2)s1 | -5.3%

High-throughput results as filed in PubChem BioAssay.
